HSV replic up: HSV replication enhancement | actives 0.005% (n = 220,000) | maximum fold increase | HSV replication augmentation in cells, fold increase;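 active = peak rise of 1.5-fold or more in the series; tested in PC3 cells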;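 also: first round at 10 µM; read as green reporter fluorescence; hits show the peak of a series up to 25 µM; 1 = signal of infected wells without compound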
Insulin prom inh: TRM-6 insulin promoter activity inhibition; TRM-6 cells (human fetal islet line), insulin promoter-eGFP reporter, imaging; reporter expression induced with tamoxifen; inhibition, % at 2 µM; actives 0.9% (n = 130,000); AID 1273;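 active = inhibition above the mean plus 3 SD, with well images judged a real hit on visual review, cut at about 60% in these data, passing the limit was not always enough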
GALR2 agonist: agonists of human galanin receptor 2 (GALR2) | AID 803 | GALR2-expressing cells, agonist activation read-out | activation, %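 (tested at 5 µM)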 | actives 0.48% (n = 140,000) | O43603;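 active = above mean plus 3 SD of all compounds, about 5% in these data, not always enough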;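 also: 0% = vehicle buffer wells and 100% = reference agonist at full effect; tested in CHO reporter cells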
Target sequence (O43603 whole entry, looked up): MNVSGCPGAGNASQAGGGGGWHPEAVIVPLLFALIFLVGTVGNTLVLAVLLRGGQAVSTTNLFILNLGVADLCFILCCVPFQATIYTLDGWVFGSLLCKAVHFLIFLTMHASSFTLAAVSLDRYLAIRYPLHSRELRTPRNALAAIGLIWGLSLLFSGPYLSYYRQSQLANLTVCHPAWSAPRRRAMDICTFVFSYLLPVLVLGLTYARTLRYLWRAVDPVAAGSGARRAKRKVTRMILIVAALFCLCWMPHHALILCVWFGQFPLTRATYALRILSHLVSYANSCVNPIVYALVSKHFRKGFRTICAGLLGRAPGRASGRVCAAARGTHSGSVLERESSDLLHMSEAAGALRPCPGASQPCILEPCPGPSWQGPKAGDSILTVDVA
RGS16-Gao HTS: regulators of human RGS16-Galphao interaction; bead-based flow cytometry RGS16-Galphao binding, fluorescence; actives lie on both sides; binding response (% of control), % at 10 µM; actives 0.38% (n = 220,000); AID 1441;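 active = below 25% or above 175%, edge rows of some plates excepted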;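 also: Galphao activated by GDP with aluminum fluoride before binding; 100% = wells without compound and 0% = beads without RGS; some results beyond the cut were filed as inactive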
Target sequence (O15492 whole entry, looked up): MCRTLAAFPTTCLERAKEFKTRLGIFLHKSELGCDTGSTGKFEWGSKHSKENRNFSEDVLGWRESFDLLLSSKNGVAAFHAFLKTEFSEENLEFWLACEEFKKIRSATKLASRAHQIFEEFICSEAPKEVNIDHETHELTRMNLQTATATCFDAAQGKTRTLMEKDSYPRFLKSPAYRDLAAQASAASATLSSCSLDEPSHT
Target sequence (P09471 whole entry, looked up): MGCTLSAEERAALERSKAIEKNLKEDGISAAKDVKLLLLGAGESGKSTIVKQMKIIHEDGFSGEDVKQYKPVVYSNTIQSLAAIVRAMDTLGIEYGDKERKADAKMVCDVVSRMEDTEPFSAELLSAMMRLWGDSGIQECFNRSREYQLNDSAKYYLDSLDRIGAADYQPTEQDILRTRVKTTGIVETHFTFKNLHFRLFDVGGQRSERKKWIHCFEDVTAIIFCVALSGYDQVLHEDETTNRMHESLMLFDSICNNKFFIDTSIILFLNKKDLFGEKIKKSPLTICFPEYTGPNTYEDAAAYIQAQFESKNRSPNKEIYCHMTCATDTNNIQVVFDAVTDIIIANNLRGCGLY
PKD1 inh: inhibitors of human PKD1 kinase; inhibition, %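 (about 10 µM by stock and volumes)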; AID 797; actives 0.056% (n = 200,000); PKD1 kinase fluorescence polarization assay;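 active = inhibition of 50% or more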;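 also: controls were vehicle for no effect and a reference inhibitor for full effect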
Insulin prom inh cell count: second read-out of Insulin prom inh, no call of its own (marks repeat the call); normalized cell count, %; measured here: cell count, toxicity; reference of the scale not given here;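 cells exposed to compound for 48 h; stained nuclei by imaging scaled within each plate; lower means fewer cells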
HSV replic up primary fold: further read-out of HSV replic up, marked with its call; fold increase; compound at 10 µM; measured here: primary screen fold increase 10 uM; tested in PC3 cells;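 GFP signal in the first replicate; 1 = infected wells without compound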
Starred values were filed as active, the others as inactive; i = inactive; . = no result given.

Order of results – HSV replic up | HSV replic up primary fold | Insulin prom inh | Insulin prom inh cell count | GALR2 agonist | RGS16-Gao HTS | PKD1 inh
(1) N#Cc1ccc(C(=O)Nc2ccc(N3CCN(C(=O)c4ccco4)CC3)cc2)c(F)c1
    i | 0.95 | -128 | 54 | -1.4 | 100 | -11
(2) O=C(COC(=O)Cc1ccccc1[N+](=O)[O-])NCC1CCCCC1
    i | 0.96 | . | . | . | 103 | 1
(3) O=C(COC(=O)c1ccc(Br)o1)NCCc1ccccc1
    . | . | 14 | 101 | . | 33 | -5
(4) CSCCC(NC=C1C(=O)OC(C)(C)OC1=O)C(=O)O (stereo not given)
    i | 0.94 | . | . | -0.5 | 104 | -3
(5) O=C(CCN1C(=O)c2ccccc2C1=O)Nc1ccccn1
    i | 1.3 | . | . | -3.2 | 100 | -4
(6) COc1ccc(N2CCN(C(=O)c3ccncc3)CC2)cc1
    i | 1 | 0 | 134 | -1.6 | 89 | -4
(7) CCCCn1c(SCC(=O)NCc2ccco2)nnc1-c1ccco1
    i | 0.87 | . | . | -1.1 | 98 | 2
(8) Cc1ccc(NC(=O)CN(c2ccccc2F)S(C)(=O)=O)cc1
    i | 0.89 | -17 | 113 | -1.2 | 101 | -4
(9) COc1ccc(CNC2CC(=O)N(C)C2=O)cc1 (stereo not given)
    i | 0.92 | 16 | 103 | -2.3 | 102 | -1
(10) O=C(Nc1nc2c(F)cc(F)cc2s1)C1CC(=O)N(Cc2ccco2)C1 (stereo not given)
    i | 0.92 | . | . | . | 100 | .
(11) Cn1c(CN2CCOCC2)nnc1SCC(=O)Nc1nccs1
    i | 1 | -17 | 179 | -0.5 | 113 | -3
(12) CC(C)(C)C(=O)NC1(C(F)(F)F)N=C2SCCN2C1=O (stereo not given)
    i | 0.76 | -16 | 114 | 0.8 | 101 | -3
(13) CC1CCCCC12NC(=O)N(CC(=O)NC(=O)Nc1ccc3c(c1)OCCO3)C2=O (stereo not given)
    i | 0.89 | 23 | 120 | -2.1 | 100 | 6
(14) COc1ccc(C)cc1NC(=O)C(OC(=O)c1cc(C)oc1C)c1ccccc1 (stereo not given)
    i | 0.96 | . | . | -0.6 | 96 | -4
(15) C=CCSc1nnc2nc3[nH]c4c(C)cccc4c3nn12
    i | 0.85 | -23 | 108 | -2.2 | 100 | 2
(16) CCOC(=O)C1CCN(C(=O)CN2C(=O)C(CC)Oc3ccccc32)CC1 (stereo not given)
    i | 1.2 | . | . | -2.4 | 71 | -2
(17) O=C1NC(=Nc2ccc(Cl)cc2)/C(=C/c2ccco2)S1
    i | 1.2 | -33 | 85 | -0.7 | 100 | 7
(18) COc1ccccc1N1CCN(C(=O)CN(C)S(=O)(=O)c2cc(C)ccc2OC)CC1
    i | 1.1 | . | . | . | 189 | -4
(19) COc1ccc(OCc2nc(C#N)c(NCCCn3ccnc3)o2)cc1
    i | 1.1 | 13 | 97 | . | 106 | -4
(20) CC(NC(=O)Cn1nc(-c2ccccc2)ccc1=O)c1ccccc1 (stereo not given)
    i | 0.86 | . | . | . | 99 | .

Entries above containing a cyano group:
Order of results – HSV replic up | HSV replic up primary fold | Insulin prom inh | Insulin prom inh cell count | GALR2 agonist | RGS16-Gao HTS | PKD1 inh
(1) N#Cc1ccc(C(=O)Nc2ccc(N3CCN(C(=O)c4ccco4)CC3)cc2)c(F)c1
    i | 0.95 | -128 | 54 | -1.4 | 100 | -11
(19) COc1ccc(OCc2nc(C#N)c(NCCCn3ccnc3)o2)cc1
    i | 1.1 | 13 | 97 | . | 106 | -4

Additional structures
Order of results – HSV replic up | HSV replic up primary fold | Insulin prom inh | Insulin prom inh cell count | GALR2 agonist | RGS16-Gao HTS | PKD1 inh
(21) CCOC(=O)Nc1nc(C)c(C(=O)c2ccc(Cl)cc2)s1
    i | 1 | 43 | 57 | -1.6 | 98 | -1
(22) O=C1CCc2ccc(NS(=O)(=O)c3ccc(F)cc3)cc2N1
    i | 0.9 | . | . | . | 99 | -10
(23) CCCN(C(=O)Cn1ncc2c(=O)oc3ccccc3c21)c1cccc(C)c1
    i | 0.76 | -51 | 83 | -0.3 | 101 | -6
(24) Cc1ccc(-c2noc(CCC(=O)Nc3cc(C)ccn3)n2)cc1
    i | 0.88 | 44 | 63 | -1.5 | 101 | 4
(25) O=C(Nc1ccc(S(=O)(=O)Nc2nccs2)cc1)C1CCCCC1
    i | 1.1 | 0 | 124 | -0.9 | 104 | -7
(26) O=C(NCc1ccccn1)C1CC(=O)N(C2CCCC2)C1 (stereo not given)
    i | 1 | . | . | -1.1 | . | -4
(27) CNc1nc(N2CCc3ccccc32)ncc1F
    i | 0.78 | 20 | 146 | -1.6 | 100 | -7
(28) CCC1(C)CC2(CCCN(CCC(O)(c3ccccc3)c3ccccc3)C2)CCO1 (stereo not given)
    i | 1.2 | . | . | . | 102 | .
(29) O=C(COC(=O)[C@@H]1CCCN1C(=O)c1cccs1)Nc1ccc(F)cc1[N+](=O)[O-]
    i | 1.1 | 13 | 80 | . | 90 | -5
(30) Fc1cccc(Cl)c1CSc1nnnn1-c1ccc2c(c1)OCO2
    i | 1.1 | -3 | 102 | -1.8 | 94 | 4
(31) CCn1c(=S)sc2c(=O)[nH]c(C)nc21
    i | 0.91 | -32 | 93 | 0.1 | 101 | -3
(32) Cc1cc(C)c(S(=O)(=O)N2CCCOC2CNC(=O)C(=O)NCc2ccccn2)c(C)c1 (stereo not given)
    i | 1 | -11 | 88 | . | 99 | 5
(33) Cc1ccc2c(Cl)cc(Cl)c(OCC(=O)Nc3cc(C)on3)c2n1
    i | 1 | -3 | 98 | -2.1 | 109 | -5
(34) COc1ccc(-n2cccc2C=O)cc1
    i | 0.91 | 10 | 116 | -2.7 | 106 | -3
(35) COC(=O)c1ccccc1NC(=O)CSc1nnc(-c2cccnc2)n1N
    i | 0.96 | 5 | 124 | . | 99 | -10
(36) CCc1ccc(NC(=O)c2c(C(=O)Nc3ccccc3)sc3nc(C)cc(=O)n23)cc1
    i | 0.8 | . | . | . | 101 | 8
(37) CCn1c(Cc2ccccc2)nnc1SCC(=O)Nc1ccc2c(c1)OCO2
    i | 0.88 | . | . | -0.3 | 101 | -2
(38) Cc1cnc(C(=O)OCC(=O)c2csc(N3CCCCC3)n2)cn1
    i | 1 | -50 | 167 | -1.7 | 110 | 18
(39) S=C(NC1CCCC1)NC1CC1
    i | 1.1 | 46 | 111 | -0.9 | 104 | -6
(40) CCCNC(=O)c1cccc(COc2ccccc2OC)c1
    i | 1 | . | . | . | 93 | 0
(41) CCn1cc(C(=O)NCCC2=CCCCC2)c(=O)c2cc(S(=O)(=O)N(C)C)ccc21
    i | 1.2 | . | . | 1.2 | 102 | 5
(42) COCCCNC(=O)Nc1ccc(F)cc1F
    i | 0.87 | 48 | 150 | -2.4 | 99 | 5
(43) O=C(Nc1ccc(O)c2c(=O)cc(-c3cccc(Cl)c3)oc12)c1ccccc1Cl
    i | 0.75 | . | . | . | 99 | .
(44) Cc1ccc(NC(=O)COC(=O)CCc2nc3ccccc3c(=O)[nH]2)cc1Cl
    i | 1.2 | . | . | . | 119 | 0
(45) COC(=O)c1cc(Cl)c(NC(=O)c2cc3ccccc3o2)cc1OC
    i | 0.93 | 37 | 77 | -1.1 | 85 | 2
(46) Cc1cc(C)n2nc(C(=O)NNC(=O)c3ccccc3)nc2n1
    i | 0.99 | 14 | 128 | . | 111 | -11
(47) Cc1ccc(-c2cc[n+](Cc3ccccc3)cc2)cc1
    i | 0.91 | . | . | . | 114 | 3
(48) COc1cc(CNCC(C)C)c(Br)cc1OCC(=O)NCc1ccccc1
    i | 0.72 | -13 | 82 | -3.1 | 110 | -8
(49) CC1(C)CC(=O)C(C=NCCN2CCNCC2)=C(O)C1
    i | 0.97 | -39 | 116 | . | 108 | 3
(50) O=C(NCc1ccco1)c1ccc2c(=O)n(Cc3ccco3)c(SCC(=O)N3CCCC3)nc2c1
    i | 0.93 | 61 | 72 | 0.5 | 60 | -5
(51) CCCn1nnnc1NCc1ccccc1OCc1cccs1
    i | 0.75 | -9 | 140 | 1.7 | 93 | 2
(52) CC1CCCN(C(=O)CSc2nc3ccccc3o2)C1 (stereo not given)
    i | 0.95 | -43 | 214 | -2.8 | 82 | -7
(53) Cc1ccc(S(=O)(=O)NCC(=O)N2CCOCC2)cc1
    i | 0.95 | . | . | -2.9 | 102 | -7
(54) CC1CN(C(=O)CSc2nc(-c3ccc(F)cc3)cs2)CC(C)O1 (stereo not given)
    i | 0.94 | -89 | 88 | 1.1 | 81 | -1
(55) COc1ccc(CC(=S)N2CCOCC2)cc1F
    i | 1.1 | 31 | 108 | -0.1 | 52 | -1
(56) COc1ccc(OC)c(C2=NOC(C(=O)NCC3CCCO3)C2)c1 (stereo not given)
    i | 0.88 | . | . | -0.9 | 102 | -16
(57) Cn1c(=O)[nH]c(=O)c2c1nc(CN1CCOCC1)n2Cc1ccccc1
    i | 0.86 | 9 | 82 | -0.8 | 108 | 3
(58) CN(C)C(=O)C1C2NC(=S)N(c3ccc(Cl)cc3)C1(C)Oc1ccc(Cl)cc12 (stereo not given)
    i | 0.87 | -7 | 73 | . | 90 | 4
(59) Cc1ccc(S(=O)(=O)N2CCOCC2)cc1C(=O)OC1CCCCC1=O (stereo not given)
    i | 0.95 | . | . | . | 97 | 1
(60) COc1ccc2[nH]c(CN3CCN(CCC(C)C)C(CCO)C3)c(C)c2c1 (stereo not given)
    i | 1 | . | . | . | 100 | -1

Compounds from the list above that contain a nitro group on carbon:
Order of results – HSV replic up | HSV replic up primary fold | Insulin prom inh | Insulin prom inh cell count | GALR2 agonist | RGS16-Gao HTS | PKD1 inh
(2) O=C(COC(=O)Cc1ccccc1[N+](=O)[O-])NCC1CCCCC1
    i | 0.96 | . | . | . | 103 | 1
(29) O=C(COC(=O)[C@@H]1CCCN1C(=O)c1cccs1)Nc1ccc(F)cc1[N+](=O)[O-]
    i | 1.1 | 13 | 80 | . | 90 | -5

More records:
Order of results – HSV replic up | HSV replic up primary fold | Insulin prom inh | Insulin prom inh cell count | GALR2 agonist | RGS16-Gao HTS | PKD1 inh
(61) O=C(NCc1cccs1)c1ccc(Cl)c(S(=O)(=O)N2CCCC2)c1
    i | 0.98 | -79 | 103 | . | 112 | 1
(62) O=C1CN(C(=O)CNCc2cccc(Cl)c2)c2ccccc2N1
    i | 1.1 | . | . | . | 92 | .
(63) CC(=O)Nc1ccccc1-c1nnn(CC(=O)Nc2ccc3c(c2)OCCO3)n1
    i | 0.83 | 21 | 67 | . | 102 | -2
(64) Cc1ccc(C)c2c1cc(C)c1nnc(SCC(=O)N3CCCc4ccccc43)n12
    i | 0.93 | . | . | -0.5 | 101 | -9
(65) CCc1cccc(CC)c1NC(=O)C[n+]1cccc(C(N)=O)c1
    i | 1 | . | . | . | 101 | -4
(66) NC(=O)CSc1nccn1Cc1ccccc1
    i | 1 | 7 | 127 | . | 103 | -7
(67) Cc1ccc(C2(C(F)(F)F)NC(=O)N3N=C4CCCCCN4C3=C2C#N)cc1 (stereo not given)
    i | 0.92 | . | . | . | 105 | 1
(68) CC(NC(=O)Nc1ccccc1)C(c1cccs1)N1CCOCC1 (stereo not given)
    i | 0.95 | . | . | 1.2 | 104 | 4
(69) COc1cc(C(Nc2ccccn2)c2c(NC(=O)c3ccco3)sc(C)c2C)cc(OC)c1OC (stereo not given)
    i | 1 | -28 | 144 | 0.3 | 101 | 2
(70) Cc1ccc(S(=O)(=O)N(C)c2ccc(C(=O)N3CCCCC3)cc2)cc1
    i | 0.95 | -41 | 142 | -0.6 | 103 | 3
(71) Cc1cccc(C)c1OCCNC(=O)c1ccc2ccccc2n1
    i | 0.96 | . | . | . | 103 | -2
(72) CCOc1ccccc1N1CCN(C(=O)c2cccc(-c3ccc(O)cc3)c2)CC1
    . | . | -14 | 52 | -0.1 | 82 | 10
(73) CCOC(=O)C1(Cc2ccccc2)CCN(Cc2cnn(C(C)C)c2)CC1
    i | 0.86 | . | . | . | 105 | 6
(74) Nc1ccccc1S(=O)(=O)C(F)F
    i | 0.91 | . | . | . | 99 | .

Of the compounds above, 2 contain a CF3 group.
Order of results – HSV replic up | HSV replic up primary fold | Insulin prom inh | Insulin prom inh cell count | GALR2 agonist | RGS16-Gao HTS | PKD1 inh
(12) CC(C)(C)C(=O)NC1(C(F)(F)F)N=C2SCCN2C1=O (stereo not given)
    i | 0.76 | -16 | 114 | 0.8 | 101 | -3
(67) Cc1ccc(C2(C(F)(F)F)NC(=O)N3N=C4CCCCCN4C3=C2C#N)cc1 (stereo not given)
    i | 0.92 | . | . | . | 105 | 1

Fetched by structure from above:
Order of results – HSV replic up | HSV replic up primary fold | Insulin prom inh | Insulin prom inh cell count | GALR2 agonist | RGS16-Gao HTS | PKD1 inh
(74) Nc1ccccc1S(=O)(=O)C(F)F
    i | 0.91 | . | . | . | 99 | .
(65) CCc1cccc(CC)c1NC(=O)C[n+]1cccc(C(N)=O)c1
    i | 1 | . | . | . | 101 | -4
(68) CC(NC(=O)Nc1ccccc1)C(c1cccs1)N1CCOCC1 (stereo not given)
    i | 0.95 | . | . | 1.2 | 104 | 4

Bioassay records: PubChem, several laboratories
